# Bioassay records from PubChem.
# PINK1 modulator: modulators of PINK1 expression | PINK1 immunofluorescence, high-content cytometry, 24 h | Potency, µM (top dose mostly 76.6 µM), without a hit: at the top dose activation (PINK1 increase), usual class: activators | 410,000 compounds, 0.2% hits | AID 624263; active = well fitted activation curve with a large enough effect; inconclusive = small, poorly fitted or top-dose-only effect; inactive = flat fitted curve, though single readings scatter; cell line not stated here;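 also: potency is read from the fitted curve at half-maximal effect; % of control where 0% means no effect; nearly all actives have a fitted effect of over 65% in size; a mitochondrial uncoupler was the plate control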
#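 Compound titrations (5 concentrations, 24 h) on a stable cell line; DMSO and CCCP controls. Endpoint: fixed-cell PINK1 immunofluorescence with mitochondrial, cell and nuclear markers, scanned by microplate cytometer.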
# D2 ag: agonists of human D2 dopamine receptor (beta-arrestin); P14416; DiscoveRx PathHunter D2 beta-arrestin, luminescence, 90 min; 100% = 57 uM dopamine signal; activation, % (no concentration beside the values); 360,000 compounds, 0.084% hits; AID 624465; in the data active = activation above about 40%; inconclusive = about 15% to 40%; inactive = below about 15%; also: compound concentration not given in the record; the text of the record calls up to 30% inactive
# Target sequence (P14416 whole entry, looked up): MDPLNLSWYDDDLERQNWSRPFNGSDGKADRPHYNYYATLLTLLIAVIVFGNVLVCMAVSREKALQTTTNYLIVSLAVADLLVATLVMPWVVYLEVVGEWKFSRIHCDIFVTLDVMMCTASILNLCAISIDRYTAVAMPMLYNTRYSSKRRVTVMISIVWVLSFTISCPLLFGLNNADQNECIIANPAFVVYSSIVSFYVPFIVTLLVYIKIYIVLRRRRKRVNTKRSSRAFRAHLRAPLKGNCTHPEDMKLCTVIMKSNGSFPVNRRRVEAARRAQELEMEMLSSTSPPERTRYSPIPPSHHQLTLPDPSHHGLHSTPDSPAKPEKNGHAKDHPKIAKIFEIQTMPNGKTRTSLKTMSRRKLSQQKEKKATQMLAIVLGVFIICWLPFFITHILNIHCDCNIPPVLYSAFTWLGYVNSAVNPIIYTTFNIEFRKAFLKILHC
#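 Agonist mode: compounds alone added to overnight-plated D2 PathHunter cells for 90 min at 37 C, with 57 uM final dopamine (EC100) defining full response. Beta-arrestin recruitment detected by chemiluminescent reagent, read after 1 h at ambient temperature.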
# D2 PAM: human D2 receptor positive allosteric modulation. P14416. AID 624464. DiscoveRx D2 beta-arrestin cells, luminescence, 90 min; 100% = 57 uM dopamine signal. 360,000 compounds, 0.23% hits. potentiation, % (no concentration beside the values); active = potentiation of 50% or more; inconclusive = 30% to 50%; inactive = 30% or less;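 also: compound concentration not given in the record; tested on top of an EC20 dose of dopamine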
#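 D2 cells co-treated with compound plus 50 nM dopamine (EC20) for 90 min at 37 deg C to detect potentiation. Beta-arrestin recruitment was read as enzyme-fragment luminescence after 1 h at ambient temperature. Full response was set by 57 uM dopamine.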
# Six1-Eya2 inh: inhibitors of human Six1/Eya2 interaction; Q15475+O00167; AlphaScreen GST-Six1/His-Eya2 binding, biochemical; stronger effect = lower value; control for the full effect not named in the record; activity change, % (concentration not given with the values); 360,000 compounds, 0.56% hits; AID 651725; in the data active = activity change below about -65%; inconclusive = about -30% to -65%; inactive = above about -30%; also: % is scaled to controls: 0 for no effect and ±100 for the full control effect
#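 AlphaScreen with GST-Six1 and His-Eya2 (5X mix: 250 nM and 500 nM), glutathione donor and nickel acceptor beads; buffer 50 mM Tris pH 8.0, 300 mM NaCl, 1 mM TCEP; 1 h at 37 C in the dark.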
# TRPML1 ag: human mucolipin-1 channel agonism; TRPML1-expressing cells, Ca2+ dye fluorescence, FDSS; host cell line not named in the record; reference of the full effect not given here; activation, % (test concentration not listed); 410,000 compounds, 0.12% hits; in the data active = activation above about 50%; inconclusive = about 30% to 50%; inactive = below about 30%; also: 0% is about no effect; the text of the record puts the active cut at 80%
# Target sequence (Q9GZU1 whole entry, looked up): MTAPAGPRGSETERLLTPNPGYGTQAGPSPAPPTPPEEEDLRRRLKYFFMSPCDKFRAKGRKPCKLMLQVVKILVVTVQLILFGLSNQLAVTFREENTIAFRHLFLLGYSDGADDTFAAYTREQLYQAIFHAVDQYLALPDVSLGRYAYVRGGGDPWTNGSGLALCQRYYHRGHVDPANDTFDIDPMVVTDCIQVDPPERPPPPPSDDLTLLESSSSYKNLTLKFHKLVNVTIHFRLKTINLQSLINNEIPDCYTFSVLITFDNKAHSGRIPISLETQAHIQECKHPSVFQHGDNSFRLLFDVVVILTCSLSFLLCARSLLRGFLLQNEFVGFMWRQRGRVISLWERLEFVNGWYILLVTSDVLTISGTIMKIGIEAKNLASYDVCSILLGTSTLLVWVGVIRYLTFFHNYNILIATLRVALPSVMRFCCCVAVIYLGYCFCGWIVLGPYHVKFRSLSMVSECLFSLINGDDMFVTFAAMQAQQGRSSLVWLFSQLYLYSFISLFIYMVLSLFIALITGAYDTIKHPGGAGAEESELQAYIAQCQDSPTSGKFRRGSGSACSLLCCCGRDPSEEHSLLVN
#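 Calcium fluorescence on an FDSS kinetic reader gave the read-out. Tet-induced TRPML1-DL cells were plated overnight, dye-loaded (Ca8 with quencher, 45-90 min, room temperature, dark), then read 110 s after compound addition, and again 110 s after 4uM final 54-4 (EC80).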
# CtBP-E1A blk: CtBP/E1A binding inhibition. AlphaScreen GST-E1A/His-CtBP binding, 1536-well; stronger effect = lower value; control for the full effect not named in the record. activity change, % (no concentration beside the values). 340,000 compounds, 0.49% hits. AID 651724; in the data active means activity change below about -65%; inconclusive means about -30% to -65%; inactive means above about -30%; also: % is scaled to controls: 0 for no effect and ±100 for the full control effect
#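 GST-E1A and His-tagged CtBP (125 nM each as 5X stock) were preincubated with pin-transferred compound for 2 h at 37 °C in the dark, then glutathione donor and nickel acceptor beads were added for 1 h before AlphaScreen reading.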
# Numbers without * were called inactive; ? = inconclusive; / = not tested or not shown; & = joins results of further samples; [ ] = remark or other dose.
1. O=C(O)CCC(=O)N1CN2CN(C(=O)CCC(=O)O)CC([N+](=O)[O-])(C2)C1
2. CCN(CC)CCNC(=O)c1cc2cc(Br)ccc2s1
3. COc1ccc(NC(=O)CSc2nnnn2C2CCCCC2)c(OC)c1
4. Cc1ccc(S(=O)(=O)c2nc(C(C)(C)C)oc2N2CCOCC2)cc1
5. Cc1cccc(NC(=O)CN(C)S(=O)(=O)c2cccs2)c1
6. CCCCOc1ccccc1NC(=O)CC1Nc2ccccc2NC1=O (stereo unspecified)
7. CCNS(=O)(=O)c1ccc(NC(=O)Nc2ccccc2OC)cc1
8. CCc1nc2ccc(C(=O)Nc3ccc(OC)c(OC)c3)cn2c1N(CC)Cc1ccc(OC)c(OC)c1

compound no.,1,2,3,4,5,6,7,8
PINK1 modulator,-1.1%,1.7%,0.7%,4.8%[38.3 µM],/,2.3%[38.3 µM],-0.2%,1.7%
D2 ag,-3.6,0.0,-1.5,-2.2,-0.6,-0.4,3.8,3.9
D2 PAM,5,-15,-3,-3,2,6,-12,1
Six1-Eya2 inh,6,2,5,4,2,-11,10,-22
TRPML1 ag,1.3,1.0,2.1,3.8,-0.1,-0.5,-0.9,9.7
CtBP-E1A blk,-2,-1,-14,-1,-1,10,/,-10

9. COC(=O)c1ccc(COC(=O)c2ccc(SC)cc2OC)cc1
10. CC12CC3(C)CC(C)(C1)CC(C(=O)NCCc1ccc(S(N)(=O)=O)cc1)(C2)C3
11. CCCCN1C(=O)C(CC(=O)NC2CCCCC2)CC(C(=O)N(C)C)=C1C (stereo unspecified)
12. CCOCCc1c(O)nc(SC)[nH]c1=O
13. Cc1ccccc1N1CCN(C2CCCN(C(=O)c3ocnc3C)C2)CC1 (stereo unspecified)
14. CCCN(CC1CC1)C(=O)CCc1nnc(C(OC)c2ccccc2)o1 (stereo unspecified)
15. Cc1cccc(NC(=O)c2cc(Cl)sc2Cl)c1C
16. CCCc1cc2c(c(NC(C)=O)n1)c(=O)oc1ccccc12

compound no.,9,10,11,12,13,14,15,16
PINK1 modulator,2.9%,11%,-0.1%,0.3%,1.4%,0.1%,12%,2.4%
D2 ag,-4.1,-5.1,0.9,-2.0,-2.8,-4.3,-1.7,0.1
D2 PAM,1,-4,/,4,-12,-4,-13,-7
Six1-Eya2 inh,16,-25,6,-2,7,1,10,12
TRPML1 ag,7.3,-1.0,/,0.1,0.6,-0.5,1.8,0.0
CtBP-E1A blk,17,-4,7,/,-2,8,8,1

17. Cc1cc(C(=O)COC(=O)c2cccc(S(=O)(=O)N(C)C)c2)c(C)n1CC1CCCO1 (stereo unspecified)
18. O=C(Nc1ccn(Cc2c(F)c(F)cc(F)c2F)n1)c1ccc(COc2ccc(Cl)cc2Cl)o1
19. CCC(=O)Nc1ccc(C(=O)NNC(=O)CCCCC(=O)NNC(=O)c2ccc(NC(=O)CC)cc2)cc1
20. CC(=O)c1cccc(NS(=O)(=O)c2ccc(NC(=O)N3CCCCC3)cc2)c1
21. Cc1ccnc(NS(=O)(=O)c2ccc3ccccc3c2)n1
22. O=C(COc1ccc(Br)cc1Br)NN1C(=O)c2ccccc2C1=O
23. COc1ccccc1N(CC(=O)Nc1ccccc1C(=O)N1CCCC1)S(C)(=O)=O
24. Cc1ccc(CC2CC(=O)N(c3ccc(Cl)cn3)C2=O)cc1 (stereo unspecified)

compound no.,17,18,19,20,21,22,23,24
PINK1 modulator,3.7%,4.0%[38.3 µM],12%,-2.2%,-0.5%,1.1%,0.8%,1.2%
D2 ag,-4.6,1.9,-2.2,1.1,-2.4,-2.4,-1.9,-0.4
D2 PAM,?,-4,-16,21,-1,-4,-6,-7
Six1-Eya2 inh,-17,-2,-4,0,3,-5,-1,19
TRPML1 ag,-0.6,0.6,0.0,-0.4,-0.1,0.0,0.6,-0.7
CtBP-E1A blk,-6,-1,2,-2,6,-13,0,-7

25. Cc1ccc2c(c1)CC1(CN2C)C(=O)OC(C)(C)OC1=O
26. O=C(CSc1nc2ncccc2[nH]1)NC1CCCC1
27. COCCNC(=O)c1ccccc1NC(=O)c1cccc([N+](=O)[O-])c1C
28. S=c1[nH]nc(COc2ccccc2)n1/N=C/c1c(Cl)cccc1Cl
29. COc1ccc(-c2nnn(-c3cc(Cl)cc(Cl)c3)c2N)cc1
30. CCOC(=O)N1CCN(C(=O)COc2cc(=O)n(CC)c3ccccc23)CC1
31. Cc1cc(/C=N\NC(=O)COc2cccc3cccnc23)c(C)n1-c1ccc(Br)cc1
32. CN(Cc1cn(C)c2ccccc12)C(=S)Nc1cc(F)cc(F)c1

compound no.,25,26,27,28,29,30,31,32
PINK1 modulator,0.4%,-1.2%,2.6%,1.5%,12%,-0.3%,0.7%,-0.6%
D2 ag,-2.8,-1.5,-1.2,7.2,-0.7,2.5,-1.9,-1.5
D2 PAM,-3,1,-6,-1,-8,-3,-3,-1
Six1-Eya2 inh,0,1,2,-5,-8,4,-13,-22
TRPML1 ag,-0.1&0.8,-0.6,-0.4,1.0,-0.4,1.0,0.7,0.2
CtBP-E1A blk,2,4,6,3,-2,7,-16,4

33. CC(=O)c1cccc(NC(=O)C2CCCN(S(=O)(=O)c3ccccc3)C2)c1 (stereo unspecified)
34. COc1cc(CN(C(=S)NCC(=O)NC2CCCC2)C2CCCC2)cc(OC)c1OC
35. O=C(CN(Cc1ccccc1)S(=O)(=O)c1ccc(Br)cc1)NCC1CCCO1 (stereo unspecified)
36. CC(NC(=O)CNC(=O)Cc1cccc2ccccc12)c1ccc(S(N)(=O)=O)cc1 (stereo unspecified)
37. O=C(CSc1nnnn1-c1cccc2ccccc12)Nc1ccc(N2CCOCC2)c(Cl)c1
38. N#Cc1ccc(OCC(=O)OCCCOC(=O)COc2ccc(C#N)cc2)cc1
39. CCC1CCCCN1CC(=O)Nc1cc(C)nn1-c1nc(C)cc(C)n1 (stereo unspecified)
40. COc1ccc(OCC(=O)Nc2ccc(NC(=O)c3ccco3)c(C)c2)cc1

compound no.,33,34,35,36,37,38,39,40
PINK1 modulator,1.0%[38.3 µM],1.4%,1.9%,-0.7%,-1.7%[38.3 µM],0.7%,2.0%[38.3 µM],0.7%
D2 ag,-2.7,5.5,-8.9,-2.4,2.5,-1.8,1.6,-6.4
D2 PAM,-15,-6,-7,11,-7,-22,-5,-10
Six1-Eya2 inh,-11,-1,2,-3,-7,-1,-9,-23
TRPML1 ag,1.9,0.4,-1.6,0.1,1.4,1.5,0.6,-1.3
CtBP-E1A blk,-2,-3,-3,0,-14,-7,-7,-3

41. Cc1cccc(N2CCN(C(=O)CCNC(=O)Cn3ccc4ccccc4c3=O)CC2)c1C
42. CC1(C)CC(=O)C2=C(C1)OC(c1ccncc1)C(C#N)=C2N (stereo unspecified)
43. Cc1cccc(C)c1NC(=O)CSc1nnc(NC(=O)CN2CCOCC2)s1
44. CCCC(CCC)C(=O)Nc1ccc2c(c1)N(C(=O)CCN1CCN(C)CC1)c1ccccc1CC2
45. CCN1C(=O)CC(N2CCN(c3ccc(C(=O)c4ccncc4)cc3)CC2)C1=O (stereo unspecified)
46. COc1ccc(CN(C)C(=O)[C@H]2O[C@@H](n3ccc(N)nc3=O)[C@H](O)[C@@H]2O)cc1OC
47. COc1ccc(CC(=O)Nc2ccc(-c3cn4ccccc4n3)cc2)cc1OC
48. O=C(CCc1nnc(CCCc2ccccc2)o1)NCCCC1CCCC1

compound no.,41,42,43,44,45,46,47,48
PINK1 modulator,-1.6%,0.9%,-1.0%,1.6%,3.6%[38.3 µM],1.4%,14%,1.2%
D2 ag,0.0,1.1,-2.8,-2.7,-2.2,-3.4,-0.4,-1.3
D2 PAM,5,-5,-6,-11,5,-3,3,-4
Six1-Eya2 inh,8,6,-2,2,3,10,-14,-9
TRPML1 ag,-1.5,1.0,0.9,4.4,2.1,0.1,-1.3,0.1
CtBP-E1A blk,0,-2,-3,0,5,4,-21,3

49. O=S(=O)(O)c1cc(O)ccc1O
50. O=C(O)c1ccccc1-c1ccc(/C=C/c2cc(C(F)(F)F)[nH]c(=O)n2)o1
51. Cc1ccc(N=Cc2c(O)ccc3ccccc23)cc1F
52. O=C(O)c1cccc(S(=O)(=O)N2CCCC(c3nc4c(nnn4Cc4ccc(F)cc4)c(=O)[nH]3)C2)c1 (stereo unspecified)
53. O=C(COc1ccc2ccccc2c1)Nc1cccc2cccnc12
54. CCOC(=O)C1=C(C)N=C2SC(C)C(=O)N2C1c1ccc(OCC)c(OCC)c1 (stereo unspecified)
55. CCCCn1c(=O)nc2n(-c3ccc(C)cc3)c3ccccc3cc-2c1=O
56. O=C(/C=C/NNC(=O)c1cccc(Br)c1)c1ccccc1

compound no.,49,50,51,52,53,54,55,56
PINK1 modulator,0.4%,0.4%,2.6%,7.1%,0.9%,-1.5%,12%,0.0%
D2 ag,-1.7,-2.6,-3.2,-0.5,0.9,-4.6,3.1,-0.2
D2 PAM,10,0,4,-6,17,3,7,2
Six1-Eya2 inh,-2,0,1,-19,0,-6,8,-17
TRPML1 ag,-0.8,?,-0.5,0.0,0.2,1.8,0.4,-0.4
CtBP-E1A blk,4,-17,12,-3,-1,2,11,-11

57. CN(C(=O)c1ccccn1)C1(C(=O)NC2CCCCC2)CCCCC1
58. Cc1cccc(OC(C)C(=O)Nc2cc(Cl)ccc2-n2cncn2)c1 (stereo unspecified)
59. CCCN(C(=O)C1CCCN(c2ncnc3c2nc2n3CCCCC2)C1)c1ccc(F)cc1 (stereo unspecified)
60. CC(C)(C)OC(=O)N1CCN(C(=O)c2[nH]cnc2C(=O)N[C@@H](Cc2ccccc2)C(=O)OCc2ccccc2)CC1
61. Cn1nc(C(C)(C)C)cc1C(=O)N1CCCC(c2cc(C(=O)Nc3ccccc3Cl)no2)C1 (stereo unspecified)
62. O=C(c1ccco1)N1CCN(Cc2cc(=O)c(OCc3ccc(F)cc3)co2)CC1
63. CC(C)CNC(=O)CC(c1ccccc1)c1ccccc1

compound no.,57,58,59,60,61,62,63
PINK1 modulator,-0.6%,1.1%,0.1%,0.4%,1.0%,-0.9%,-2.0%
D2 ag,-1.2,-2.5,12,4.5,6.5,1.2,0.6
D2 PAM,0,-2,-6,4,-6,-3,0
Six1-Eya2 inh,8,10,0,-10,0,1,0
TRPML1 ag,-0.9,0.6,3.4,0.2,-0.4,0.5,-0.9
CtBP-E1A blk,2,/,2,-7,0,6,-7

# 4 records drawn at random from those above, as already listed:
34. COc1cc(CN(C(=S)NCC(=O)NC2CCCC2)C2CCCC2)cc(OC)c1OC
6. CCCCOc1ccccc1NC(=O)CC1Nc2ccccc2NC1=O (stereo unspecified)
54. CCOC(=O)C1=C(C)N=C2SC(C)C(=O)N2C1c1ccc(OCC)c(OCC)c1 (stereo unspecified)
55. CCCCn1c(=O)nc2n(-c3ccc(C)cc3)c3ccccc3cc-2c1=O

compound no.,34,6,54,55
PINK1 modulator,1.4%,2.3%[38.3 µM],-1.5%,12%
D2 ag,5.5,-0.4,-4.6,3.1
D2 PAM,-6,6,3,7
Six1-Eya2 inh,-1,-11,-6,8
TRPML1 ag,0.4,-0.5,1.8,0.4
CtBP-E1A blk,-3,10,2,11
